Bioassay records from PubChem BioAssay.
NS1 inh – influenza NS1 inhibition; S. cerevisiae slowed by influenza A NS1, growth recovery by OD600; Potency, µM (top dose mostly 46.1 µM), for the others: top-dose activity, positive = more growth; 0.4% of 270,000 active; active means well fitted rising curve with a large enough effect; inconclusive means small, poorly fitted or top-dose-only effect; inactive means no such curve, though single readings can be large or run the other way; further: nearly all actives have a fitted effect of over 50% in size
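A cell-based growth assay was used: compounds that relieve NS1-induced slow growth of budding yeast raise OD600. Assay medium was yeast nitrogen base with ammonium sulphate and -URA supplement, pH 6.0, with 2% galactose.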
Lassa entry inh – Lassa virus entry inhibition. Potency, µM (top dose mostly 37.9 µM), for the others: at the top dose activity change, negative = inhibition, most hits filed as inhibitors. Lassa virus pseudotype entry inhibition, cell reporter; control for the full effect not named in the record. 1.2% of 300,000 active; active means well fitted inhibition curve with a large enough effect; inconclusive means small, poorly fitted or top-dose-only effect, or effect the other way; inactive means flat fitted curve, though single readings scatter; tested in HEK293 cells; further: on the % scale 0 is the no-effect control and ±100 the full control effect; nearly all actives have a fitted effect of over 50% in size; luciferase read-out
2A StopGo – FMDV 2A StopGo reporter, luciferase signal. human cells with a luciferase reporter of 2A StopGo recoding; control for the full effect not named in the record. Potency, µM (top dose mostly 57.9 µM), without a hit: at the top dose signal change, negative = less light. 1.2% of 410,000 active; active = well fitted falling curve with a large enough effect; inconclusive = small, poorly fitted or top-dose-only effect; inactive = no such curve, though single readings can be large or run the other way; tested in HEK293T cells; further: on the % scale 0 is the no-effect control and ±100 the full control effect; nearly all actives have a fitted effect of over 45% in size; luciferase light after 4 h
RE007 growth inh – less growth of the S. pombe RE007 Vpr strain; S. pombe RE007 Vpr strain, BacTiter-Glo ATP luminescence, 24 h; control for the full effect not named in the record; Potency, µM (top dose mostly 92.2 µM), for inactives: top-dose activity change, negative = less growth; 0.21% of 360,000 active; AID 651644; active = well fitted falling curve with a large enough effect; inconclusive = small, poorly fitted or top-dose-only effect; inactive = no such curve, though single readings can be large or run the other way;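 further: on the % scale 0 is the no-effect control and ±100 the full control effect; nearly all actives have a fitted effect of over 50% in size; the assay follows cell death caused by Vpr and the record does not say whether a fall means rescue or toxicity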
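Fission yeast RE007 carrying one integrated HIV-1 vpr copy, seeded at OD 0.01 in PMG+AL medium with 23 nL pinned compound. Grown 24 h at 30 degrees; viability read by BacTiter-Glo luminescence after 5 min.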
SARS PLpro yeast – SARS-CoV PLP inhibition in yeast; S. cerevisiae expressing SARS-CoV PLpro, growth rescue; control for the full effect not named in the record; Potency, µM (doses to about 32.9 µM), inactives show top-dose activity, positive = growth rescue; 0.19% of 330,000 active; active means well fitted rising curve with a large enough effect; inconclusive means small, poorly fitted or top-dose-only effect; inactive means no such curve, though single readings can be large or run the other way; further: 0% is about no effect; nearly all actives have a fitted effect of over 55% in size; growth read by luminescence after 48 h
Cruzain noTriton – cruzain (T. cruzi) inhibition without detergent; P25779; purified cruzain, Z-FR-AMC fluorescence, no detergent; Potency, µM, without a hit: max response, negative = inhibition, actives largely listed as inhibitors; 2.3% of 200,000 active;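 further: plate controls were enzyme without inhibitor for no effect and buffer without enzyme for full effect; nearly all actives have a fitted effect of over 40% in size; top concentration of the series not given in the record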
Target sequence (P25779 123-467 limits assumed): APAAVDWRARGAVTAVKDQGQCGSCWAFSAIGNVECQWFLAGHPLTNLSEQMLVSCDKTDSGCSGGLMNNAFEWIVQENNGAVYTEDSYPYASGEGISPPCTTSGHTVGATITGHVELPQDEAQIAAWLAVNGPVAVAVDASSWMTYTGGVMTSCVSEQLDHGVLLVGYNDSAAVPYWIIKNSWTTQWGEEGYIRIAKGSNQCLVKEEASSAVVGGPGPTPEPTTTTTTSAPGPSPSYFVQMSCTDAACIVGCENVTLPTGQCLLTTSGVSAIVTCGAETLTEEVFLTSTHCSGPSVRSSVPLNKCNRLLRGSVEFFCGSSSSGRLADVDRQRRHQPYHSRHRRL
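Detergent-free condition (0.00005% Triton X-100) in acetate buffer pH 5.5 with DTT. 1.5 nM enzyme and compound were pre-mixed 15 min, then 2 uM Z-FR-AMC substrate added; reaction progress from fluorescence change between first and third reads (60 s).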
Cruzain inh Det – inhibitors of Trypanosoma cruzi cruzain with detergent; P25779; purified cruzain, Z-FR-AMC fluorescence, 0.01% Triton; Potency, µM, for inactives: max response, negative = inhibition, hits mostly inhibitors; 0.43% of 200,000 active;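 further: plate controls were neutral wells for no effect and buffer without enzyme for full effect; nearly all actives have a fitted effect of over 40% in size; top concentration of the series not given in the record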
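Compounds were screened in titration against cruzain (1.5 nM) with 0.01% Triton X-100 to counter colloidal aggregation. Activity was the AMC fluorescence increase over 60 s after adding 2 uM Z-FR-AMC at pH 5.5.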
MARV entry inh – Marburg virus entry inhibition; 1.8% of 300,000 active; Potency, µM (doses to about 37.8 µM), for inactives: at the top dose activity change, negative = inhibition, usual class: inhibitors; Marburg virus pseudotyped entry inhibition, cell reporter; control for the full effect not named in the record; about a third of the inactives were read at about 46 µM; active = well fitted inhibition curve with a large enough effect; inconclusive = small, poorly fitted or top-dose-only effect, or effect the other way; inactive = flat fitted curve, though single readings scatter; tested in HEK293 cells; about a fifth of its hits are not listed in these tables; further: on the % scale 0 is the no-effect control and ±100 the full control effect; luciferase read-out
An asterisk follows results filed as active; u = inconclusive; x = not tested or not shown; & = joins results of further samples; ! = repeats disagree; [ ] = dose if it differs, or a comment. Unless noted, the call rests on the fitted dose curve; in most records, active means well fitted curve in the direction sought with a large enough effect; inconclusive means small, poorly fitted or top-dose-only effect, or another doubt; inactive means no such curve, though single readings can be large; an effect the other way counts as inactive or inconclusive. Potency means the concentration at half of the fitted maximal effect.

SMILES | NS1 inh | Lassa entry inh | 2A StopGo | RE007 growth inh | SARS PLpro yeast | Cruzain noTriton | Cruzain inh Det | MARV entry inh
N/C(=N\OC(=O)N1c2ccccc2Sc2ccccc21)c1ccc(Br)cc1 | -9% | u | -29% | -14% | -23% | u | -2.6% | u
COc1ccccc1-n1c(C)c2c(OC)cccc(=O)c2c1C | u | 5% | 0% | -15% | 7% | -5% | -4.5% | 9%
CN1CCN(C(=O)Cn2ncc3c([nH]c4ccccc43)c2=O)CC1 | -11% | x | -17% | 5% | 1% | x | x | x
NC(=O)COC(=O)/C=C/c1cccc(Br)c1 | 4% | -5% | 0% | 5% | -1% | x | x | 0%[14.2 µM]
O=C1N(Cc2cccc(Cl)c2)C[C@@H]2C[C@@H](c3cccn3-c3cccnc3)N3CCC[C@@]123 | -4% | u | u | -12% | 0% | x | x | 13µM*
CCn1nc(C)c(CN2CCC(n3nccc3NC(=O)CCCc3ccccc3)CC2)c1C | 7% | 1% | -11% | 4% | 0% | x | x | u
Cc1ccc(CNC(=O)CSc2ccc(-c3ccccn3)nn2)cc1 | x | u | 20% | 1% | u | x | x | u
CN1CCC(O)(c2ccccc2)C2CCCC21 (stereo not drawn) | 1% | 0% | 0% | 12% | -7% | -14% | 0.2% | 4%
CCOc1cc(C(=O)NC)cc(Br)c1OCc1ccccc1 | x | 1% | -7% | 22% | -8% | x | x | -7%
O=C(O)c1ccccc1C=NN=C1c2ccccc2-c2ccccc21 | x | u | 42%[activator] | -11% | x | x | x | 13%
CN(C)S(=O)(=O)c1cccc(NC(=O)CSc2nc3ccccc3n2-c2ccccc2)c1 | -16% | u | -9% | x | -13% | -21% | -4.3% | u
CCCCCn1c(NC2CCCCC2)nc2c1c(=O)[nH]c(=O)n2C | 1% | x | -25% | -1% | -2% | x | x | x
Cc1nc2ccc(C(=O)O)cc2nc1C | 14% | 1% | -4% | -8% | 9% | -3% | -0.4% | 9%
COc1cc(-c2c(-c3cccc(C)c3)oc3ccccc23)cc(OC)c1OC | 11% | x | -17% | -19% | 1% | x | x | x
COc1ccc(-c2cc(C(F)(F)F)nc(SCC(=O)N(C)Cc3cnn(C)c3C)n2)cc1OC | 7% | -5% | -13% | 7% | -8% | u | -11% | 13%
COC(=O)c1ccc(C2/C(=C(/O)c3ccc(OC)cc3)C(=O)C(=O)N2c2cc(C)on2)cc1 (stereo not drawn) | u | -12% | -21% | -2% | 10% | -2% | -1.5% | -24%[46.1 µM]
CCOC(=O)C1CCC(CN(Cc2c(Cl)cccc2Cl)S(=O)(=O)c2ccc(F)cc2)CC1 (stereo not drawn) | x | u | -11% | x | x | -17% | 1.1% | x
CC(C)(C)c1cc(S(=O)(=O)CCc2ccncc2)cc(C(C)(C)C)c1F | 9% | 12% | 26% | 2% | 0% | x | x | -3%[46.1 µM]
CC(N)C12CC3CC(CC(O)(C3)C1)C2 (stereo not drawn) | 12% | 14% | x | 9% | 7% | -3% | 11% | -3%
O=C(CSc1nnc(CNC(=O)c2ccco2)o1)c1ccccc1 | -8% | u | -15% | 6% | -4% | 6% | 0.9% | 1%
CCCS(=O)(=O)N1CCN(S(=O)(=O)c2ccccc2[N+](=O)[O-])CC1 | 3% | u | -12% | -27% | 0% | x | x | -12%[46.1 µM]
O=C(COc1ccc([N+](=O)[O-])cc1)NCCC1=CCCCC1 | -30% | 0% | -21% | 23% | -7% | -7% | 0.1% | 21%
NC(=O)[C@H](Cc1cc2ccccc2s1)NC(=O)[C@@H]1CC2(CC(c3cccc(NC(=O)[C@@H]4CCC(=O)N4)c3)=NO2)CN1C(=O)/C=C/Sc1ccccc1 (stereo partly drawn) | 18µM* | 3% | -7% | -4% | -2% | u | -11% | 12%
Cc1cnc(NC(=O)Cc2ccc(C)c(C)c2)s1 | 6% | u | 15% | 15% | 1% | x | x | u
CCN(CC)c1nc2cc(C)ccc2cc1/C=C(\C#N)C(N)=O | -1% | 15% | -16% | 1% | -1% | x | x | -8%[46.1 µM]
O=C(NCc1nnnn1-c1ccc(F)cc1)c1ccc([N+](=O)[O-])o1 | x | 2% | -20% | -3% | -3% | x | x | u
Cc1ccccc1Nc1ccc(S(=O)(=O)N2CCOCC2)cc1[N+](=O)[O-] | 11% | u | -7% | -5% | 21% | -27% | -5.5% | -4%
COc1ccc(CNC(=O)/C=C/c2ccc3[nH]cc(CCN(C)C)c3c2)cc1 | -8%&-3% | -14% | 24% | -3%[18.4 µM] | 1% | 3% | -5.0% | 35µM*!
O=C(NCC(=O)N(c1ccccc1F)C(C(=O)NC1CCCC1)c1ccco1)c1ccco1 (stereo not drawn) | -1% | u | -2% | 35% | 0% | x | x | u
CCSc1ncc(CO)c(N)n1 | 5% | 26%[46.1 µM] | 4% | 10% | -2% | x | x | -9%[46.1 µM]
Cc1nn(-c2ccc(F)cc2)c(-n2cccc2)c1C(=O)NCCc1ccc(Cl)cc1 | x | u | u | x | x | 18% | -9.9% | x
Cc1ccc(OCC2Cn3c(nc4c3c(=O)[nH]c(=O)n4C)O2)cc1C (stereo not drawn) | -1% | -5%[46.1 µM] | -25% | 9% | -2% | x | x | u
O=C(OCC(=O)N1CCCc2ccccc21)c1ccccc1[N+](=O)[O-] | x | 16% | 61%[activator] | -2% | -5% | x | x | u
CCCCC(=O)Nc1ccccc1N1CCOCC1 | x | -2%[46.1 µM] | 2% | 3% | -1% | x | x | -9%[46.1 µM]
Cn1nnnc1SCC(=O)Nc1ccccc1N1CCCCC1 | -6% | -10% | -1% | -4% | 3% | 1% | -0.5% | 23%[46.1 µM]
CS(=O)(=O)N(CC(=O)NCCSCc1cccc(Cl)c1)c1ccccc1F | -18% | x | -5% | 1% | 0% | x | x | x
Cc1cc(Nc2ccccc2)n(-c2cccc(Cl)c2)n1 | 5% | 18% | u | 8% | -22% | -6% | 0.8% | -13%
CC(=O)Nc1ccc(NC(=O)c2cccc3ccccc23)cc1 | 5% | u | -5% | -16% | 5% | x | x | 1%
CCn1c(=O)c2cc(C(=O)Nc3cc(F)ccc3F)sc2c2ccccc21 | x | 10%[46.1 µM] | -5% | x | x | -2% | 3.4% | 3%[46.1 µM]
COCCOc1ccc(C(F)(F)F)cc1NC(=O)Cc1ccc(S(=O)(=O)N2CCOCC2)s1 | x | 14% | 7% | -17% | -2% | x | x | -18%
Cc1c(S(=O)(=O)Nc2cccc(Cl)c2)c(=O)n(C)c(=O)n1C | 3% | x | -3% | 2% | -4% | 2% | 3.4% | x
Cc1cccc(CS(=O)(=O)Cc2ccc(C(=O)NCC3CCCO3)o2)c1 (stereo not drawn) | 6% | 2% | -26% | 9% | -1% | -1% | -3.6% | 24%
O=C(NC(=O)c1ccccc1)Nc1ccc(-n2nc(C(F)(F)F)cc2C(F)(F)F)cc1 | x | -5%[46.1 µM] | -25% | x | x | 28% | 0.3% | 13%[46.1 µM]
CSc1nnc2n(-c3ccccc3)c(=O)c3c4c(sc3n12)CCC4 | -8% | 4% | u | 12% | -10% | -8% | 2.7% | 9%
COCCSc1nnc(NC(=O)C2CCCCC2)s1 | -14% | -1% | 40%[activator] | 7% | 4% | 10% | 3.5% | 19%
CC(C)CNC(=O)c1cccc(NC(=O)Cc2ccc(Cl)cc2)c1 | 0% | -25% | -4% | 1% | 11% | -1% | -0.7% | 0%
CCCCC(CC)C(=O)Nc1cc(C(=O)NCc2ccc(C)cc2)ccc1N1CCC2(CC1)CC(c1ccccc1)=NO2 (stereo not drawn) | u | x | -13% | -14% | -4% | x | x | x
O=C(NCCCn1ccnc1)Nc1ccc(Cl)cc1Cl | -3% | 10% | 12% | 1% | 3% | -4% | -4.5% | 16%[46.1 µM]
CN(Cc1cccs1)c1ncnc2sccc12 | -3% | -23% | u | 16% | -10% | -14% | -2.4% | -37%
COc1ccc(NC(=O)c2cc(S(=O)(=O)NCC3COc4ccccc4O3)ccc2F)cc1 (stereo not drawn) | -3% | -14% | -24% | 16% | 10% | 12% | -6.4% | -4%
Nc1ccc(Cc2ccc(N)c(C(=O)O)c2)cc1C(=O)O | -3%&12% | -4% | -8% | 2% | -2% | -4%&-1% | -2.6%&0.5% | -2%&-2%&-2%
O=C(CSc1nnc(-c2ccccc2)n1-c1ccc(Cl)cc1)NNC(=S)Nc1ccccc1 | 4% | 14% | -16% | 8% | -17% | u | 0.2% | -1%
Cc1cccc(N2C(=O)/C(=C\c3ccc(OC(F)F)cc3)c3ccccc3C2=O)c1 | -7% | u | u | -2% | -58% | -23% | -8.4% | 25%
CCN(CC)CCOc1ccccc1C(C)=O | -7% | 6%[46.1 µM] | -14% | 7% | 3% | x | x | u
Cc1ccc(NC(=O)Cn2c(-c3nonc3N)nc3ccccc32)cc1C | x | -17%[46.1 µM] | 40%[activator] | x | x | 4µM* | 7.1µM* | x
O=C1NC(=O)C(CCc2ccncc2)(Cc2cccc(Cl)c2Cl)C(=O)N1c1ccc(Br)cc1 (stereo not drawn) | 10% | u | 7% | -11% | -55% | u | -8.6% | u
O=S(=O)(c1ccc(-c2nnc(SCc3nnc(-c4ccccc4)o3)o2)cc1)N1CCCC1 | 8% | 1% | -7% | 10% | -3% | u | 0.1% | -26%&-26%
c1ccc(Oc2cccc(OCCCCN3CCCC3)c2)cc1 | -7% | -18% | -21% | -3% | -5% | 1% | -1.9% | 21µM*

Exported in markdown: part of the list above
| Molecule | NS1 inh | Lassa entry inh | 2A StopGo | RE007 growth inh | SARS PLpro yeast | Cruzain noTriton | Cruzain inh Det | MARV entry inh |
| --- | --- | --- | --- | --- | --- | --- | --- | --- |
| O=C1NC(=O)C(CCc2ccncc2)(Cc2cccc(Cl)c2Cl)C(=O)N1c1ccc(Br)cc1 (stereo not drawn) | 10% | u | 7% | -11% | -55% | u | -8.6% | u |
| O=S(=O)(c1ccc(-c2nnc(SCc3nnc(-c4ccccc4)o3)o2)cc1)N1CCCC1 | 8% | 1% | -7% | 10% | -3% | u | 0.1% | -26%&-26% |
| CSc1nnc2n(-c3ccccc3)c(=O)c3c4c(sc3n12)CCC4 | -8% | 4% | u | 12% | -10% | -8% | 2.7% | 9% |
